High-throughput results: PubChem BioAssay, several laboratories
Sa RN4220 lethal: S. aureus RN4220 growth inhibition; OD600, 16 h; inhibition, % (test concentration not listed); 330,000 compounds, 0.33% hits; AID 1259311;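 active means z-score of -3 or lower and OD600 up to 0.18 on both plates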;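 further: plate controls were untreated cells for no effect and reference antibiotic for full effect; stock transfer was 100 nL into about 80 µL; one replicate is shown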
Bead autofluor: counter-screen for toxin protease inhibitors: compound fluorescence; compound autofluorescence counterscreen, microsphere flow cytometry; hits give high values; 360,000 compounds, 3.1% hits; fluorescence intensity (test concentration not listed);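 active means at least 3 SD above the mean of all compounds, about 16000 in these data; inconclusive means too few beads counted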;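 further: 100 nL of 1 mM stock went into each well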
Mtb hypoxia rep: inhibitors of hypoxia-regulated fluorescent reporter in Mycobacterium tuberculosis | 300,000 compounds, 0.1% hits | fluorescence inhibition, % (concentration not given with the values) | M. tuberculosis hypoxia-regulated fluorescent reporter, fluorescence;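 active means 35 to 45% if threefold the growth effect, above 45% if 1.5-fold the growth effect; inactive means the rest, general growth blockers included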;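 further: wells of about 50 µL received 100 nL stock; 0% = vehicle wells and 100% = reference inhibitor wells; whole bacteria with a GFP reporter of the hypoxia response; strong numbers were not always called active; many hits fall short of the cut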
ugtP null kill: kills S. aureus RN4220 lacking UgtP. S. aureus RN4220 ugtP deletion, OD600 growth, 16 h; some inactives read as strong as hits. growth inhibition, % (concentration not given with the values). 330,000 compounds, 0.54% hits. AID 1259309;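 active means z-score under -3 and OD600 up to 0.15 on both plates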;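 further: plate controls were untreated wells for no effect and antibiotic for full effect; wells of about 80 µL received 100 nL stock; the first replicate is given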
BJeLR viability: BJeLR cell viability loss; BJeLR (HRASV12) viability, CellTiter-Glo ATP luminescence, 48 h; reference of the scale not given here; inhibition, % (no concentration beside the values); 300,000 compounds, 0.17% hits; AID 1554;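 active means replicate mean above 50%; inconclusive means above 50% but judged a plate artefact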;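 further: 50 nL library stock added to about 25 µL; numbers are from one replicate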
PrP UTR inh: suppresses PrP 5' UTR mRNA reporter expression; cell-based PrP 5' UTR mRNA reporter, plate reader; inhibition, % (no concentration beside the values); 340,000 compounds, 0.35% hits;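 active means every replicate at 50% or more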;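 further: 0 = median of the neutral control wells; tested in H4 reporter cells; numbers are from one replicate; inactives centre near -14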
Mtb hypoxia rep growth: recorded beside Mtb hypoxia rep, whose call it bears; growth inhibition, %; measured here: M. tuberculosis growth (absorbance);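 0% = vehicle and 100% = reference antibiotic; read after six days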
Active calls of the source: *; ? = inconclusive; · = not tested or not shown.

SMILES	Sa RN4220 lethal	Bead autofluor	Mtb hypoxia rep	Mtb hypoxia rep growth	ugtP null kill	BJeLR viability	PrP UTR inh
Cc1onc(-c2ccccc2)c1C(=O)Nc1nc2c(s1)C(=O)CC(C)(C)C2	3.9	3631	-88	-13	-5	9	-5
COc1ccc(C(=O)NCc2c(C)nn(Cc3ccccc3)c2C)cc1S(=O)(=O)N1CCOCC1	1.5	5969	6	2	8	·	-29
CCSc1nc2ccccc2n1CC(=O)N1CCOCC1	4.6	2207	5	6	5	7	-14
O=C(Cc1ccccc1)N1CCN(Cc2cccc(Br)c2)CC1	4.4	4753	15	17	10	1	-22
CCOc1ccc(CNc2ccc3c(c2)nc(C)n3C)cc1	4.0	2732	·	·	0	·	-57
Cc1ccccc1-c1cc(C(=O)NCC2CC2)nn1CC1CC(c2cccc([N+](=O)[O-])c2)=NO1 (configuration not stated)	2.4	3778	6	12	-1	·	-9
CN(CC(=O)NC(=O)Nc1ccccc1F)Cc1ccccc1	2.4	5632	0	-9	10	·	-12
O=C(CC1SC(N2CCOCC2)=NC1=O)Nc1ccc(F)cc1 (configuration not stated)	-1.4	2986	-9	3	-2	·	-9
Cc1ccc(N2CC(C(=O)OCC(=O)Nc3ccc(F)cc3F)CC2=O)cc1 (configuration not stated)	15	4477	0	0	2	·	-44
O=C(NCc1ccc2c(c1)OCO2)c1ccc(CSCc2cccc(Cl)c2)o1	-3.8	2261	-2	-5	-8	-1	-8
O=C(O)CSCCOc1ccc(OCCSCC(=O)O)cc1	5.3	2541	8	9	-1	-4	-35
CCOc1ccc2nc(NC(=O)C3=NN(c4ccccc4)C(=O)CC3)sc2c1	32	4799	12	9	21	5	-28
Cc1cc(/C=C\c2nc(O)c([N+](=O)[O-])c(=O)[nH]2)c(C)n1-c1ccccc1	1.3	2280	2	5	2	-5	-43
O=S(=O)(N=C(Nc1ccccn1)c1ccccc1)c1ccccc1	5.3	·	-1	-1	-4	·	·
Cc1oc(-c2cccc(F)c2)nc1CN1CCCCC1CCn1cccn1 (configuration not stated)	0.5	7201	4	12	7	3	-9
COC(=O)c1sccc1NC(=O)Nc1cc(C)ccc1C	2.6	2670	9	-5	-2	-4	-5
Cc1ccc(S(=O)(=O)N2CCN(c3cnn(C)c(=O)c3Cl)CC2)cc1	7.0	2907	13	7	12	2	-20
N=c1sccn1CC(=O)N1N=C(c2ccc(Cl)cc2)CC1c1ccco1 (configuration not stated)	3.6	4656	1	1	-1	7	-12
CC(=O)c1ccc(NC(=O)[C@@H]2CCCN2C(=O)OC(C)(C)C)cc1	-1.9	3800	-6	-5	7	4	-21
Cc1ccc(SCC(=O)OCC(=O)N(C)C2CCS(=O)(=O)C2)cc1C (configuration not stated)	0.4	3783	5	10	1	·	-6
Cc1[nH]cnc1C(=O)NN=Cc1ccc([N+](=O)[O-])s1	100*	·	-8	-8	100*	·	·
COc1cccc(C(=O)Nc2cc3c(cc2Br)OCCCO3)c1	1.0	7114	12	7	5	1	-40
Cc1cc(COc2ccccc2OCc2cc(C)no2)on1	6.0	5949	-6	-5	-2	·	-20
CCSc1ccccc1C(=O)n1nnc2ccccc21	4.4	11082	3	6	16	·	-48
COC(=O)N1N=C(c2ccc(Br)cc2)CC1(O)C(F)(F)F (configuration not stated)	3.9	1990	19	12	2	-2	-52
COC(=O)CCC(C)N1CCC(Oc2ccc(C(=O)NCc3ccccn3)cc2)CC1 (configuration not stated)	0.5	5807	2	-6	1	-4	-10
CCOC(=O)N1CCN(c2ccc(C(=O)c3ccccc3)cc2F)CC1	9.9	2531	17	8	2	-3	-42
CC1(C)SC(=S)N(N=Cc2ccccc2O)C1N(O)C(=O)Nc1ccccc1 (configuration not stated)	-1.4	·	-8	-15	9	·	·
Cc1c(NC(=O)Nc2ccccc2[N+](=O)[O-])c(=O)n(-c2ccccc2)n1C	2.3	3799	3	8	4	-11	-1
O=C(/C=C/c1ccc([N+](=O)[O-])s1)N1CCCC1	72	4016	15	25	70	-3	-22
COc1ccccc1C(=O)N/C(=C\c1cn(C)c2ccccc12)C(=O)N1CCOCC1	0.1	6227	-2	-1	2	-3	-8
CCN(CC)c1ccc(C=NNc2nc(C)cc(C)n2)c(O)c1	11	·	19	7	13	·	·
CC(C)(C(N)=O)c1ccccc1	1.3	4145	-5	4	-6	5	-15
Cc1cccc(COCC(CC(C)C)N2CCN(C(=O)c3ccc(C(C)(C)C)cc3)CCC2=O)c1 (configuration not stated)	-0.7	3507	4	6	-9	6	-5
O=C(c1noc2c1CCc1ccccc1-2)N1CCCc2ccccc21	5.5	8067	7	10	14	-2	-33
CCOC(=O)c1[nH]c(C)c(C(=O)NCCCOC(C)C)c1C	6.0	21373*	4	6	3	1	-21
Cc1ccc(NC(=O)CSc2nc(N)cc(=O)[nH]2)cc1Cl	9.1	4128	0	7	4	5	-9
O=C(c1ccccc1Br)N1CCCC(c2nc(-c3cccs3)no2)C1 (configuration not stated)	0.9	4535	1	3	6	-7	1
Nc1nc(-c2ccc([N+](=O)[O-])cc2)cs1	1.7	2448	6	12	5	-12	-38
COc1ccc(-c2cc(-c3n[nH]c(=S)n3-c3ccccc3Cl)[nH]n2)cc1	-15	1954	23	20	84	10	-1
CC(C)(C)c1ccc(C(=O)NNC(=O)Cc2ccccc2)cc1	1.2	9567	8	-3	4	-1	-38
Cn1c(=O)c2c(nc(N3CCCCCC3)n2CC(O)COc2ccc(Cl)cc2)n(C)c1=O (configuration not stated)	0.7	21826*	3	0	1	-5	8
COCc1c(C(=O)N2CCN(c3ncccn3)CC2)oc2ccccc12	1.0	7854	3	11	5	·	-9
CC1CCc2c(C(=O)Nc3cccc(-c4nn[nH]n4)c3)csc2C1 (configuration not stated)	1.0	6513	13	10	-1	1	-8
Cc1cnn(Cc2cccnc2)c1N	2.2	4637	10	-5	7	0	-15
CCOC(=O)c1oc2nc(CC(C)C)c3c(c2c1N)CCCC3	1.7	4034	14	30	33	-4	-10
CCOc1ccccc1NC(=O)COC(=O)COc1c(Cl)cc(Cl)c2ccc(C)nc12	3.5	5386	3	3	2	-10	-15
COc1ccc(OC)c(C=NNC(=O)c2cc3c(OC)cccc3[nH]2)c1	4.3	·	6	-1	6	·	·

Look-ups from above.
ugtP null kill result of CC(C)(C(N)=O)c1ccccc1 → -6
BJeLR viability result of COC(=O)N1N=C(c2ccc(Br)cc2)CC1(O)C(F)(F)F (configuration not stated) → -2
ugtP null kill result of COCc1c(C(=O)N2CCN(c3ncccn3)CC2)oc2ccccc12 → 5
Sa RN4220 lethal result of CC1(C)SC(=S)N(N=Cc2ccccc2O)C1N(O)C(=O)Nc1ccccc1 (configuration not stated) → -1.4
PrP UTR inh result of CC1CCc2c(C(=O)Nc3cccc(-c4nn[nH]n4)c3)csc2C1 (configuration not stated) → -8
Sa RN4220 lethal result of O=C(CC1SC(N2CCOCC2)=NC1=O)Nc1ccc(F)cc1 (configuration not stated) → -1.4

Retrieved by structure from the list above, seven records:
SMILES	Sa RN4220 lethal	Bead autofluor	Mtb hypoxia rep	Mtb hypoxia rep growth	ugtP null kill	BJeLR viability	PrP UTR inh
Cc1[nH]cnc1C(=O)NN=Cc1ccc([N+](=O)[O-])s1	100*	·	-8	-8	100*	·	·
COc1ccc(-c2cc(-c3n[nH]c(=S)n3-c3ccccc3Cl)[nH]n2)cc1	-15	1954	23	20	84	10	-1
Cc1oc(-c2cccc(F)c2)nc1CN1CCCCC1CCn1cccn1 (configuration not stated)	0.5	7201	4	12	7	3	-9
CC(C)(C)c1ccc(C(=O)NNC(=O)Cc2ccccc2)cc1	1.2	9567	8	-3	4	-1	-38
CN(CC(=O)NC(=O)Nc1ccccc1F)Cc1ccccc1	2.4	5632	0	-9	10	·	-12
Cc1onc(-c2ccccc2)c1C(=O)Nc1nc2c(s1)C(=O)CC(C)(C)C2	3.9	3631	-88	-13	-5	9	-5
CCSc1nc2ccccc2n1CC(=O)N1CCOCC1	4.6	2207	5	6	5	7	-14

Record cards, from the list above:
`CC1CCc2c(C(=O)Nc3cccc(-c4nn[nH]n4)c3)csc2C1` (configuration not stated) is entered as Sa RN4220 lethal = 1.0; Bead autofluor = 6513; Mtb hypoxia rep = 13; Mtb hypoxia rep growth = 10; ugtP null kill = -1; BJeLR viability = 1; PrP UTR inh = -8
`Cc1ccc(NC(=O)CSc2nc(N)cc(=O)[nH]2)cc1Cl` is entered as Sa RN4220 lethal = 9.1; Bead autofluor = 4128; Mtb hypoxia rep = 0; Mtb hypoxia rep growth = 7; ugtP null kill = 4; BJeLR viability = 5; PrP UTR inh = -9

The listing continues:
SMILES	Sa RN4220 lethal	Bead autofluor	Mtb hypoxia rep	Mtb hypoxia rep growth	ugtP null kill	BJeLR viability	PrP UTR inh
O=C(CSc1n[nH]c(=O)n1Cc1ccco1)Nc1ccccc1Cl	1.2	·	19	15	2	-9	-16
CS(=O)(=O)c1ccc2nc(NC(=O)c3ccccc3Cl)sc2c1	-9.0	3905	-1	7	-3	4	-24
COc1cccc(/C(O)=C2/C(=O)C(=O)N(Cc3cccnc3)C2c2ccco2)c1 (configuration not stated)	-0.4	3598	15	7	-3	-7	-29
Cc1c(C(=O)OC2CCCCC2)sc2nc[nH]c(=O)c12	4.2	7574	8	9	31	-2	-12
CCOC(=O)C1=C(C)NC(C)=C(C(=O)OCC)C1c1cccs1	5.9	2616	6	2	12	-11	-6
O=C(N/N=C/c1ccccn1)c1cccnc1	·	3381	·	·	·	1	-17
Nc1ccc(C(=O)N/N=C/c2cn(Cc3ccccc3)c3ccccc23)cc1	·	?	·	·	·	15	18
CC1(c2ccccc2)NC(=O)N(CCOc2ccccc2)C1=O (configuration not stated)	4.9	4172	2	3	3	-10	-7
CC(C)C1COC(NC2=NC(C(C)C)CO2)=N1 (configuration not stated)	3.6	·	-6	3	3	·	·
CCCCOC(=O)/C(=C/C=C/c1ccccc1)NC(=O)c1ccccc1	6.1	3461	1	18	-6	1	-25
Cc1cccc(-c2nnc(SCc3cc(=O)[nH]c4ccccc34)n2C)c1	0.6	·	9	6	1	-30	-15
CCN(CC)S(=O)(=O)c1ccc(NC(=O)CCN2C(=O)C3CC=CCC3C2=O)cc1 (configuration not stated)	3.2	?	-11	-6	0	·	0
COc1ccc(C=NNC(=O)c2[nH]ncc2Br)c(OC)c1	-0.1	·	3	6	4	·	·
O=C(CSc1nc(=O)n2ccccc2n1)N1CCCc2ccccc21	0.4	6547	2	2	3	6	-22
Cc1ccc(CC(=O)NNC(=O)c2ccncc2)cc1C	5.3	·	4	-7	17	-2	-19
CC(C)NC(=O)CN1CCN(Cc2nc(C(c3ccccc3)c3ccccc3)no2)CC1	-0.3	4101	-2	11	7	3	-39
COc1cc(Cl)ccc1NC(=S)N(CCCN1CCOCC1)Cc1cn(C)c2ccccc12	-1.7	9802	2	5	2	-16	-12
Cc1ccc(-c2nnc(Nc3ccc(OCC(N)=O)cc3)c3ccccc23)cc1S(N)(=O)=O	2.3	3099	-1	6	4	1	·
CC(=O)N1CCc2cc(S(=O)(=O)NCCC(=O)NCCc3ccc(Cl)cc3)ccc21	4.7	5987	5	6	12	19	-8
Cc1ccc(N=Cc2c(O)cc(C)oc2=O)c(C)c1	0.8	3218	-6	-4	2	9	-17
O=C(Nc1ccc(O)c(C(=O)O)c1)Oc1ccccc1	1.6	4041	13	4	8	0	-13
CC(=O)Nc1nonc1NC(=O)CSc1nc2ccccc2o1	1.9	22359*	-4	7	-7	0	-7
COc1cc(Cl)c(S(=O)(=O)NCCN2CCOCC2)cc1Cl	5.8	6916	3	-10	8	2	-22
COc1ccc(C=NNC(=O)Cc2cccs2)cc1	4.3	·	-4	7	9	·	·
CC(C)CN1CCC(CNC(=O)CCc2nnc(Cc3c[nH]c4ccccc34)o2)CC1	3.2	3383	14	4	2	-2	-6
Cc1ccc(-c2csc3ncnc(SCC(=O)c4ccc5c(c4)OCCO5)c23)cc1	-3.0	19619*	1	0	10	-8	-14
CSc1ccccc1C(=O)Nc1cccc(C)c1	6.9	17403*	7	11	-5	4	-8
CCN(CC(=O)NCc1cccs1)C(=O)c1cc(S(=O)(=O)N2CCCCC2)ccc1Cl	0.7	5329	10	1	1	0	-20
Nc1n[nH]c(CO)n1	3.4	3964	4	-5	8	-9	3
